Source: PubChem BioAssay (National Center for Advancing Translational Sciences (NCATS))
gsp ag = agonists of gsp mutant (McCune-Albright syndrome); gsp mutant cells, cAMP HTRF, 30 min; control for the full effect not named in the record; Potency, µM (series often up to 76.9 µM), inactives show top-dose activation (cAMP increase), most hits filed as activators; 340,000 tested, 0.13% active; AID 624287; active = well fitted activation curve with a large enough effect; inconclusive = small, poorly fitted or top-dose-only effect, or another doubt; inactive = no such curve, though single readings can be large or run the other way; cell line not stated here;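 note: phosphodiesterase inhibitor Ro 20-1724 added with compounds to block cAMP breakdown; potency is the fitted concentration of half-maximal effect; nearly all actives have a fitted effect of over 60% in size; about a fifth of the inactives were tested at one dose only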
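Cells stably selected in G418 were plated at 2000/well, grown 16-24 hr, then given compounds in DMSO with the PDE inhibitor […] (300 uM solution added) for 30 min at 37C; cAMP was read by HTRF.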
D2 PAM = potentiates the human D2 dopamine receptor allosterically; potentiation, % (test concentration not listed); AID 624464; 360,000 tested, 0.23% active; DiscoveRx D2 beta-arrestin cells, luminescence, 90 min; 100% = 57 uM dopamine signal; active = potentiation of 50% or more; inconclusive = 30% to 50%; inactive = 30% or less;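 note: compound concentration not given in the record; tested on top of an EC20 dose of dopamine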
Target sequence (P14416 whole entry, looked up): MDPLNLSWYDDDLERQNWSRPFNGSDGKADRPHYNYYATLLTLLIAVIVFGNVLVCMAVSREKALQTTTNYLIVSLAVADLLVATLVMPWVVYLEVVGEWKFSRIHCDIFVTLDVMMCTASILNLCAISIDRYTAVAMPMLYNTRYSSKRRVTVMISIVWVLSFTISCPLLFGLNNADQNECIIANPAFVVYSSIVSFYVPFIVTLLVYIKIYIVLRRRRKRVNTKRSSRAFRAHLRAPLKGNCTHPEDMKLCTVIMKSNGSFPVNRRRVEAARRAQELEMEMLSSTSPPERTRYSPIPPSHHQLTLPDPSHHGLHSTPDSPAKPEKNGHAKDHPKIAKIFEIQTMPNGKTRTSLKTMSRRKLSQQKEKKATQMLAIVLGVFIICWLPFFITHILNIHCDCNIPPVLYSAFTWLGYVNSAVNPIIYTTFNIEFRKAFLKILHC
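PathHunter D2 cells, attached overnight at 37 deg C, received compound in DMSO plus dopamine at EC20 (50 nM final) for 90 min at 37 deg C. Beta-arrestin recruitment was read as luminescence after 1 h with detection reagent at ambient temperature.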
D2 agonist = agonists of human D2 dopamine receptor (beta-arrestin) | P14416 | AID 624465 | DiscoveRx PathHunter D2 beta-arrestin, luminescence, 90 min; 100% = 57 uM dopamine signal | 360,000 tested, 0.084% active | activation, % (test concentration not listed); in the data active = activation above about 40%; inconclusive = about 15% to 40%; inactive = below about 15%; note: compound concentration not given in the record; the text of the record calls up to 30% inactive
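DiscoveRx PathHunter D2 beta-arrestin cells (2,100/well) attached overnight, then compound-stimulated 90 min at 37 C in HBSS/10 mM HEPES/0.1% Tween-20 buffer; beta-galactosidase complementation read by luminescence after 1 h at ambient temperature. Dopamine 57 uM final (EC100) as control.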
Six1-Eya2 blk = blocks human Six1 binding to Eya2; Q15475+O00167; AlphaScreen GST-Six1/His-Eya2 binding, biochemical; stronger effect = lower value; control for the full effect not named in the record; activity change, % (test concentration not listed); 360,000 tested, 0.56% active; in the data active = activity change below about -65%; inconclusive = about -30% to -65%; inactive = above about -30%; note: % is set by controls: 0 for no effect and ±100 for the full control effect; compound concentration not given in the record
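Homogeneous AlphaScreen proximity assay pairing GST-Six1 with His-tagged Eya2 (added as 5X mix: 250 nM and 500 nM) in 50 mM Tris pH 8.0, 300 mM NaCl, 1 mM TCEP. Glutathione donor and nickel acceptor beads; 1 h, 37 °C, dark.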
gsp antagonist = gsp mutant antagonism; Potency, µM (highest dose often 76.9 µM), without a hit: top-dose activity change, negative = inhibition, usual class: inhibitors; 340,000 tested, 0.4% active; gsp-mutant cells, cAMP HTRF, 30 min; control for the full effect not named in the record; active = falling curve of any shape with a large fitted effect; inconclusive = falling curve, mostly with a smaller effect; inactive = flat or rising curve; cell line not stated here;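 note: intracellular cAMP measured with PDE inhibitor Ro 20-1724 present during compound exposure; potency is the fitted concentration of half-maximal effect; % is set by controls: 0 for no effect and ±100 for the full control effect; nearly all actives have a fitted effect of over 65% in size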
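HTRF cAMP measurement after 30 min RT detection following 30 min, 37C compound treatment alongside […] (added as 300 uM solution) in G418-selected cells seeded at 2000/well and grown 16–24 h.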
CtBP-E1A blk = inhibitors of CtBP/E1A interaction; AlphaScreen GST-E1A/His-CtBP binding, 1536-well; stronger effect = lower value; control for the full effect not named in the record; 340,000 tested, 0.49% active; activity change, % (no concentration beside the values); AID 651724; in the data active means activity change below about -65%; inconclusive means about -30% to -65%; inactive means above about -30%; note: % is set by controls: 0 for no effect and ±100 for the full control effect; compound concentration not given in the record
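GST-E1A and His-tagged CtBP (125 nM each as 5X stock) were preincubated with pin-transferred compound for 2 h at 37 °C in the dark, then glutathione donor and nickel acceptor beads were added for 1 h before AlphaScreen reading.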
* = called active by the depositor; ? = inconclusive; . = no result given; [ ] = another dose, or the depositor's remark.

SMILES	gsp ag	D2 PAM	D2 agonist	Six1-Eya2 blk	gsp antagonist	CtBP-E1A blk
CCN1C(=O)[C@@H]2[C@@H]3CN(S(=O)(=O)c4ccc(C)cc4)[C@@H](c4cccc5ccccc45)[C@@H]3C(=O)C[C@@H]2C1=O	.	-6	-1.3	6	.	3
CC(/C=C/c1ccccc1)=N\NC(=O)CSc1ccccn1	-6%[15.4 µM]	-30	-0.7	0	-18%	0
C/C(=N\Nc1nccnc1Cl)c1ccc(Cl)c(Cl)c1	-1%[15.4 µM]	-4	1.4	7	-4%	-23
O=C(NCC(c1ccc(F)cc1)N1CCOCC1)c1ccc([N+](=O)[O-])o1 (centres undefined)	-29%	9	1.9	2	-7%	1
CCCC12CN3CC(C)(CN(C1)C31CCCCC1)C2=O	?	-5	-3.2	7	-4%	-1
Cc1cccc(N(Cc2cc(=O)[nH]c3ccccc23)C(=O)CCl)c1	?	-9	-2.7	-5	1%	.
Cc1cc2nc3c(=O)n(Cc4ccccc4)c(=O)[nH]c3nc2cc1N	0%[15.4 µM]	20	4.0	-28	-20%	?
O=C(NCCCN1CCCC1=O)c1cccc(NS(=O)(=O)c2ccc(Br)cc2)c1	10%	4	3.8	2	-11%	2
Cc1nc(C(=O)NNC(=O)c2ccccc2)c(C(F)(F)F)o1	7%[15.4 µM]	-1	-2.3	0	9%	6
CC(C)(C)NC(=O)NC(=O)CN1CCN(S(=O)(=O)c2ccc3c(c2)OCCO3)CC1	-31%[inhibitor]	-12	-1.6	2	4%	.
CC(C)(C)OC(=O)C(C)(C)Sc1nnc(N)s1	-5%	-11	-6.0	-19	12%	-9
CCCCC(=O)Nc1cccc(NC(=O)c2cccnc2Cl)c1	-6%	1	-2.4	-1	7%	6
Cc1c(Cl)cccc1NC(=O)CCN1CCCC(C)C1 (centres undefined)	2%	-27	-0.4	3	11%	4
Nc1nc(SCC(=O)Nc2ccc(Cl)cc2C(F)(F)F)n[nH]1	-3%	2	-0.5	7	3%	2
CCc1ccc(C(=O)Nc2ccc(C)c(NS(C)(=O)=O)c2)cc1	-5%	-30	-4.5	-1	-5%	.
COc1cc(NC(=O)Cn2nc(C(F)(F)F)c3c2CCCC3)cc(OC)c1OC	4%	-24	-1.5	-4	-14%	-3
OC[C@H]1O[C@@H](Oc2ccc(O)cc2)[C@H](O)[C@@H](O)[C@@H]1O	.	0	1.8	-3	5%	9
CCOC(=O)C1CCN(S(=O)(=O)c2ccc(C(C)(C)C)cc2)CC1	-3%[15.4 µM]	-9	-0.8	3	-8%	-4
CCOc1ccc(NC(=O)CCCc2cc(-c3ccc(OCC)cc3)on2)cc1	3%	-14	-2.1	2	11%	-1
O=[N+]([O-])c1ccc(NCCOc2ccccc2Cl)nc1	-3%	-3	-6.2	-3	3%	-10
COc1ccc(CNC(=S)Nc2ccccc2Cl)cc1	3%	-4	-1.1	2	-1%	-14
CSc1ncccc1C(=O)NC(C)C1CC2CCC1C2 (centres undefined)	4%[15.4 µM]	-13	-2.4	16	12%	1
COC(=O)c1ccc(/C=C/C(=O)OCC(=O)Nc2sccc2C(N)=O)cc1	5%	21	?	?	28µM*	-69*
COc1ccc(N(C)C(=O)c2cn(CC(C)C)c(=O)c3cc(OC)c(OC)cc23)cc1	-11%	0	-4.8	11	-6%	-10
CC1(C)NC(=O)N(Cc2cc(=O)n3ccsc3n2)C1=O	11%[15.4 µM]	0	0.1	10	10%	-19
COc1cc(OC)cc(C(=O)NC(C(=O)Nc2ccc3c(c2)OCCO3)C(C)C)c1 (centres undefined)	2%	-26	-1.0	-4	1%	.
O=C(O)CCC(=O)Nc1nc(-c2ccccc2)cs1	-48%[inhibitor]	-18	-0.2	-1	1%	6
COc1ccc(C2=NN(C(N)=S)C(c3ccco3)C2)cc1 (centres undefined)	5%	-14	3.5	-10	-13%	-4
Clc1ccc2c(c1)c1ccccc1n2CN1CCOCC1	-6%	-5	1.5	8	-2%	3
CN[C@H]1C[C@H]2c3cc(-c4ccccc4)ccc3CCN2C(=O)[C@H]1[C@H](C)O	39%	0	-9.7	-6	.	-6
CC(Cc1ccccc1)=NNc1ccc([N+](=O)[O-])cc1[N+](=O)[O-]	12%	4	4.7	-65*	1%	?
CCCCSc1nnc(-c2cc(Br)ccc2N)c(=O)[nH]1	-4%	4	-2.4	-2	?	-8
Cn1cc(-c2ccc(C(=O)Nc3cccc(Oc4ccccc4)c3)c3occc23)cn1	.	-7	3.1	-1	.	3
O=C(O)CCCN1C(=O)C(=O)/C(=C(/O)c2ccc(Cl)cc2)C1c1ccccc1 (centres undefined)	-32%[inhibitor]	-11	-1.8	18	4%	20
Fc1cc(Br)ccc1NC(=S)Nc1ccccc1	0%	-11	-4.9	0	13%	-2
CCOc1cc2c(cc1OCC)C(C(=O)O)C(c1cc(Br)c(O)c(OC)c1)N(C)C2=O (centres undefined)	22%	-16	-3.4	0	0%	-1
COc1ccc(-c2nc(CS(=O)(=O)CC(=O)NCCCN3CCN(C)CC3)c(C)o2)cc1	?	-18	-9.8	2	11%	2
CCn1c(SCC(=O)N2CCC(C)CC2)nc2c1c(=O)n(C)c(=O)n2C	8%[15.4 µM]	-5	-1.6	2	2%	2
Cc1cc(-c2nc3c4c5c(sc4[nH]c(=O)n3n2)CCC5)c(C)o1	11%[15.4 µM]	-10	-1.4	-17	3%	-1
O=C(NCC(=O)N1CCN(c2ccccc2O)CC1)C1CCCCC1	1%[15.4 µM]	18	4.9	-5	-8%	-1
COCCNc1c(-c2ccc(OC)cc2)nc2ccc(Cl)cn12	5%[15.4 µM]	9	8.5	4	?	-11
NC(=O)CCNC(=O)c1ccc(Cl)cc1	-3%	2	-1.3	3	6%	-2
O=C(COC(=O)c1ccc(F)c(S(=O)(=O)N2CCOCC2)c1)c1ccc(Br)cc1	7%[15.4 µM]	21	3.0	-3	-3%	6
Cc1cccc(C(OC(=O)c2ccco2)C(=O)NCc2ccccc2)n1 (centres undefined)	3%	2	-0.5	-1	0%	4
Clc1ccc(Cc2ccccn2)cc1	2%[15.4 µM]	-3	2.5	0	1%	7
CC(C)(C)c1ccc(SCCc2ccncc2)cc1	-2%[15.4 µM]	-3	2.7	-8	6%	12
O=C(CN1C(=O)C2C3C=CC(C3)C2C1=O)NCC1COc2ccccc2O1 (centres undefined)	-8%	4	0.4	8	9%	-3
COc1cc(/C=N/NC(=O)C(N)=O)cc(OC)c1O	0%[15.4 µM]	-1	-2.7	0	-8%	-10
O=C(NCCC1=CCCCC1)C1CCCN(S(=O)(=O)c2ccccc2)C1 (centres undefined)	-15%	0	0.4	8	4%	14
CC1(C)CC(=O)c2c(oc3ccc(NS(=O)(=O)c4cccc5cccnc45)cc23)C1	-30%[inhibitor]	-7	6.4	-10	-16%	-5
The listing continues:
SMILES	gsp ag	D2 PAM	D2 agonist	Six1-Eya2 blk	gsp antagonist	CtBP-E1A blk
CCOc1ccc(N=C(C)C2=C(O)c3ccccc3C2=O)cc1	15%	-4	2.3	13	-12%	-10
COC(=O)c1c(C)cc(O)c(C=O)c1O	.	-28	-3.9	5	5%	1
O=C(CC1SC(N2CCCCC2)=NC1=O)Nc1ccc(C(=O)NCCc2ccc(F)cc2)cc1 (centres undefined)	11%	0	3.9	1	-4%	-21
CCn1c(-c2ccoc2C)n[nH]c1=S	-1%	-13	0.3	7	14%	2
CC(=O)N1CCN(CC(=O)Nc2ccc(C)c(F)c2)CC1	19%	-8	-3.9	3	9%	5
CCOC(=O)c1c(N2C(=O)Nc3ccccc3N2O)n[nH]c1-c1cccc(OC)c1	-30%	-1	-0.4	4	8%	11
Cc1ccc(NC(=S)N(Cc2ccccc2)C(C)C)cc1	-3%[15.4 µM]	-3	2.0	2	-13%	0
CCOC(=O)C1=C(COC(=O)c2cccc(Cl)c2)NC(=O)NC1C (centres undefined)	?	-9	-9.0	0	5%	-1
O=C(NCc1cccnc1)c1ccccc1NS(=O)(=O)c1ccc(F)cc1	-18%	-9	-4.2	5	-7%	3
Cn1c2ccccc2c2c(C(=O)N3CCN(c4ccc(F)cc4)CC3)cn(C3CCCC3)c(=O)c21	7%	-19	-5.1	-23	16%	-12
CC(=O)c1cccc(Nc2nc(N3CCOCC3)nc(N3CCOCC3)n2)c1	53%	-2	4.8	5	17%	5
COc1cc2[nH]c(=O)n(C3CCCCC3)c(=O)c2cc1OC	-30%[inhibitor]	-14	0.8	2	27%	0
Cc1nn(-c2ccccc2)c(C)c1NC(=O)COC(=O)CCc1ccccc1	-3%	-9	0.2	4	-2%	-3
COc1ccccc1OCCNC(=O)c1ccc(C)o1	-10%[15.4 µM]	-64	-1.7	1	7%	7
C[C@@H](O)CNC(=O)c1[nH]cnc1C(=O)Nc1ccc(CNC(=O)OC(C)(C)C)cc1	?	.	5.0	-4	.	-14
O=C(O)c1ccc(-c2nc(-c3ccc(Cl)cc3Cl)cs2)cc1	18%	-1	1.9	-12	-9%	-6
CCN(C(=O)CSc1nc2ccccc2o1)C1CCS(=O)(=O)C1 (centres undefined)	?	3	-1.9	5	7%	2
COc1cc(CN2CCCC(CO)(Cc3ccccc3F)C2)ccc1O (centres undefined)	29%	-5	-4.9	-1	-9%	-5
Cc1oc(C(=O)O)cc1CSc1nnc(-c2ccccc2)n1C	-1%	-3	-2.2	5	5%	-1
CC(C)c1ccccc1NCC(=O)N1CCN(Cc2ccccc2)CC1	15%	-32	6.8	-15	2%	-13

Shown with two lines to a compound: part of the list above
Sequence of screens: gsp ag, D2 PAM, D2 agonist, Six1-Eya2 blk, gsp antagonist, CtBP-E1A blk
CC(=O)N1CCN(CC(=O)Nc2ccc(C)c(F)c2)CC1
 : 19%, -8, -3.9, 3, 9%, 5
CCOC(=O)c1c(N2C(=O)Nc3ccccc3N2O)n[nH]c1-c1cccc(OC)c1
 : -30%, -1, -0.4, 4, 8%, 11
Cc1ccc(NC(=S)N(Cc2ccccc2)C(C)C)cc1
 : -3%[15.4 µM], -3, 2.0, 2, -13%, 0
CCOC(=O)C1=C(COC(=O)c2cccc(Cl)c2)NC(=O)NC1C (centres undefined)
 : ?, -9, -9.0, 0, 5%, -1
O=C(NCc1cccnc1)c1ccccc1NS(=O)(=O)c1ccc(F)cc1
 : -18%, -9, -4.2, 5, -7%, 3
Cn1c2ccccc2c2c(C(=O)N3CCN(c4ccc(F)cc4)CC3)cn(C3CCCC3)c(=O)c21
 : 7%, -19, -5.1, -23, 16%, -12

Next part:
SMILES	gsp ag	D2 PAM	D2 agonist	Six1-Eya2 blk	gsp antagonist	CtBP-E1A blk
CCc1nc2c(nnn2Cc2ccc(F)cc2)c(=O)[nH]1	5%	-5	2.8	2	4%	10
Cc1ccc(C(=O)N(C)CCOc2ccccc2)cc1S(=O)(=O)N1CCOCC1	26%	-19	-0.8	-3	5%	-2
O=C(NCc1ccccc1)C1CCCN(c2ncnc3c2nc2n3CCCCC2)C1 (centres undefined)	8%	0	-2.7	-2	-6%	-18
CCN(C[C@H]1N[C@@](Cc2ccccc2)(C(=O)OC)[C@H]2C(=O)N(Cc3ccccc3)C(=O)[C@@H]12)C(=O)COc1ccccc1	.	.	-0.1	-1	?	-3
